# Source: PubChem BioAssay
# A1 inh: inhibitors of A1; caspase activation, % (test concentration not listed); hit rate 0.51% among 21,000; MEF A1-2A-BIM cells, caspase-Glo luminescence, 3 h; percent of clofoctol signal, DMSO as zero; AID 2241;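 active = most replicate scores above 10, or exactly half above 10 with mean activity above 10; inconclusive = mean activity below 10 while half the replicates exceed 10; inactive = most replicate scores below 10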;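 also: effector caspase 3 and 7 activity cleaving a DEVD luciferin substrate; 50 nL library stock added to about 30 µL; numbers are from one replicate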
# BJeLR viability: compounds reducing viability of BJeLR cells; BJeLR fibroblasts viability, CellTiterGlo ATP luminescence, 48 h; HRASV12, hTERT and SV40 LT/ST transformed; viability loss activity score, % (test concentration not listed); hit rate 0.64% among 30,000; in the data active = viability loss activity score above about 50%; inconclusive = no clear call, values can overlap the other calls; inactive = below about 35%; about a fifth of its hits are not listed in these tables;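 also: higher score means fewer live cells and less ATP luminescence; stock transfer was 50 or 100 nL into about 30 µL; 0% = vehicle wells and 100% = a reference killing control; one replicate is shown; the record names a cut of 85%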
# * = called active by the depositor; ? = inconclusive; nt = not tested or not shown. This is a subset; count on the stated rates, not on these rows.
canonical_smiles	A1 inh	BJeLR viability
COc1ccc(NC(=O)N(C)C[C@@H]2Oc3c(NC(=O)Nc4ccc(C(F)(F)F)cc4)cccc3C(=O)N([C@H](C)CO)C[C@H]2C)cc1	nt	-1.0
C[C@H](CO)N1C[C@H](C)[C@H](CN(C)S(=O)(=O)c2ccc(F)cc2)Oc2c(NS(=O)(=O)c3cccs3)cccc2C1=O	nt	2.5
CCCn1c(=O)c2[nH]cnc2n(-c2ccccc2C)c1=O	0.8	-3.0
C[C@H](CO)N1C[C@H](C)[C@H](CN(C)Cc2ccc(Cl)c(Cl)c2)Oc2c(NC(=O)c3cnccn3)cccc2C1=O	nt	-1.9
C=C1C(=O)O[C@@H]2C[C@@]3(C)CC(=O)C=C(C)C3C[C@H]12 (stereo partly specified)	-0.7	-8.6
C[C@H](CO)N1C[C@H](C)[C@H](CN(C)Cc2ccncc2)Oc2ccc(NS(=O)(=O)c3cn(C)cn3)cc2C1=O	0.5	-3.2
CCc1ccc(C(=O)CC2OC(=O)c3c2ccc(OC)c3OC)cc1 (stereo unspecified)	-0.5	-1.4
C[C@H](CO)N1C[C@H](C)[C@@H](CN(C)C(=O)Nc2ccc(F)cc2)Oc2ccc(NC(=O)Nc3ccc(F)cc3)cc2C1=O	-0.2	-6.5
C[C@H](CO)N1C[C@H](C)[C@@H](CN(C)S(=O)(=O)c2cccs2)Oc2c(NS(=O)(=O)c3ccccc3)cccc2C1=O	nt	-7.7
O=C(Nc1ccc(-c2nc3ccccc3s2)c(O)c1)c1ccccc1	nt	-2.1
COc1ccc(S(=O)(=O)Nc2ccc3c(c2)C(=O)N([C@@H](C)CO)C[C@@H](C)[C@@H](CN(C)Cc2ccc(C(=O)Nc4ccccc4N)cc2)O3)cc1	nt	20
CCOC(=O)c1cncc(C#CCOC(=O)c2c(-c3ccccc3)noc2C)c1	-0.5	-3.5
CCN(CC)CCN1Cc2c(sc(C)c2C)N(C(=O)c2ccccc2)C1	0.5	2.6
C[C@@H]1CN([C@@H](C)CO)C(=O)c2cc(NC(=O)CCC(F)(F)F)ccc2O[C@@H]1CN(C)Cc1ccc(C(=O)O)cc1	0.8	-1.4
COc1ccc(S(=O)(=O)Nc2ccc3c(c2)C(=O)N([C@@H](C)CO)C[C@@H](C)[C@H](CN(C)C(=O)Nc2ccccc2)O3)cc1	-0.1	4.6

# The final 4 compounds of the part above lead into the next:
canonical_smiles	A1 inh	BJeLR viability
CCOC(=O)c1cncc(C#CCOC(=O)c2c(-c3ccccc3)noc2C)c1	-0.5	-3.5
CCN(CC)CCN1Cc2c(sc(C)c2C)N(C(=O)c2ccccc2)C1	0.5	2.6
C[C@@H]1CN([C@@H](C)CO)C(=O)c2cc(NC(=O)CCC(F)(F)F)ccc2O[C@@H]1CN(C)Cc1ccc(C(=O)O)cc1	0.8	-1.4
COc1ccc(S(=O)(=O)Nc2ccc3c(c2)C(=O)N([C@@H](C)CO)C[C@@H](C)[C@H](CN(C)C(=O)Nc2ccccc2)O3)cc1	-0.1	4.6
C[C@H]1CN([C@@H](C)CO)C(=O)c2cccc(NS(C)(=O)=O)c2O[C@@H]1CN(C)C(=O)Nc1cccc2ccccc12	nt	1.1
CC(C)NC(=O)Nc1cccc2c1O[C@H](CN(C)Cc1ccc(-c3ccccc3)cc1)[C@H](C)CN([C@H](C)CO)C2=O	nt	-6.3
CN(CCC#N)C(=O)c1cc2c(s1)-c1ccccc1S(=O)(=O)C2	0.8	0.5
C[C@@H]1CN([C@@H](C)CO)C(=O)c2cc(NC(=O)Cc3cn(C)c4ccccc34)ccc2O[C@H]1CN(C)C(=O)Nc1cccc2ccccc12	0.2	-2.2
FC(F)(F)c1ccccc1N=C1CCCc2ccccc21	-0.2	-0.8
C[C@@H]1CN([C@H](C)CO)C(=O)c2cc(NC(=O)Nc3cccc4ccccc34)ccc2O[C@@H]1CN(C)S(=O)(=O)c1ccc(Cl)cc1	0.8	-1.9
C[C@@H]1CN([C@H](C)CO)C(=O)c2cc(NC(=O)C3CCCCC3)ccc2O[C@@H]1CN(C)S(=O)(=O)c1ccccc1	0.7	1.2
COc1ccc(NC(=O)N(C)C[C@H]2Oc3c(NC(=O)Nc4ccccc4)cccc3C(=O)N([C@@H](C)CO)C[C@@H]2C)cc1	nt	3.2
Cc1cc(C(=O)N2N=C(C3CC3)CC2(O)C(F)(F)F)c2ccccc2n1 (stereo unspecified)	nt	4.0
CC(C)NC(=O)N(C)C[C@H]1Oc2c(NC(=O)c3ccncc3)cccc2C(=O)N([C@H](C)CO)C[C@@H]1C	nt	0.8
C[C@@H]1CN([C@@H](C)CO)C(=O)c2cc(NC(=O)c3ccncc3)ccc2O[C@@H]1CN(C)S(=O)(=O)c1cn(C)cn1	0.2	-0.1
O=C(O)CCN=C1CCCc2ccccc2N1	-0.1	0.5
CSc1sc(NC(=O)N2CCOCC2)c(-c2ccc(Cl)cc2)c1C#N	0.2	1.2
C[C@@H]1CN([C@@H](C)CO)C(=O)c2cc(NC(=O)C3CCCCC3)ccc2O[C@H]1CN(C)S(=O)(=O)c1cn(C)cn1	-0.2	0.6
O=C(Nc1ccc(Cl)cc1)c1csc(COc2ccc3nonc3c2)n1	-0.1	1.0
CC(C)NC(=O)Nc1ccc2c(c1)C(=O)N([C@H](C)CO)C[C@@H](C)[C@@H](CN(C)Cc1ccc3c(c1)OCO3)O2	0.6	3.0
Cc1cc(Cc2cccs2)c(=O)[nH]n1	-0.4	-7.4
O=C(Nc1cccc2ccccc12)c1cc2ccccc2oc1=O	-0.9	-4.9
C[C@H](CO)N1C[C@H](C)[C@H](CN(C)Cc2ccc(C(=O)O)cc2)Oc2c(NS(=O)(=O)c3ccccc3)cccc2C1=O	nt	-2.4
Cc1noc(C)c1NC(=O)Nc1cccc2c1O[C@H](CN(C)Cc1ccccc1)[C@H](C)CN([C@@H](C)CO)C2=O	nt	-8.8
Cc1ccc(OCC(O)CNc2ccc(Br)c(C(F)(F)F)c2)cc1C (stereo unspecified)	0.1	15
CCOC(=O)N1CCC(n2c(SCc3ccc(F)cc3Cl)nc3ccsc3c2=O)CC1	1.2	-5.5
Cc1ccc(-n2nnnc2-c2cnn(-c3ccccc3)c2C)cc1	0.2	-4.0
COc1ccccc1NC(=O)CSc1nc2ccccc2o1	0.0	14
Cc1noc(C)c1NC(=O)Nc1cccc2c1O[C@@H](CN(C)S(=O)(=O)c1ccc(Cl)cc1)[C@@H](C)CN([C@H](C)CO)C2=O	nt	-2.1
COc1c(O[C@@H]2O[C@H](CO)[C@@H](O)[C@H](O)[C@H]2O)cc2c(c1OC)-c1ccc(SC)c(=O)cc1C(NC(C)=O)CC2 (stereo partly specified)	-0.6	-4.9
CC12CC(c3ccoc3)OC(=O)C1CCC1(C)C2C2OC(=O)C1(O)C1OC21 (stereo unspecified)	-0.1	-0.3
C[C@@H]1CN([C@@H](C)CO)C(=O)c2cc(NC(=O)CCN3CCOCC3)ccc2O[C@@H]1CN(C)C(=O)NC1CCCCC1	0.0	-5.0
CCOC(=O)c1c(CNC(C)C)oc2ccc(OC)cc12	0.2	4.4
CN(C)CCC=C1c2ccccc2CCc2ccccc21	0.3	0.7
COc1ccc(Br)cc1CNC(=O)C1CCCN(S(C)(=O)=O)C1 (stereo unspecified)	0.6	-1.3
C[C@@H]1CN([C@@H](C)CO)C(=O)c2cccc(NS(=O)(=O)c3ccc(Cl)cc3)c2O[C@H]1CN(C)Cc1ccc(C(=O)O)cc1	nt	1.5
C[C@H](CO)N1C[C@H](C)[C@H](CN(C)C(=O)Nc2ccccc2)Oc2c(NC(=O)C3CC3)cccc2C1=O	nt	-0.6
CSC(SC)=C(C#N)C(=O)c1cccc(C(F)(F)F)c1	48*	?
Cc1cc(C(=O)Nc2cccc3c2O[C@H](CN(C)C(=O)Nc2ccccc2)[C@H](C)CN([C@H](C)CO)C3=O)n(C)n1	nt	2.5
C[C@H]1CN([C@@H](C)CO)C(=O)c2cc(NC(=O)CCC(F)(F)F)ccc2O[C@H]1CN(C)Cc1ccccc1	0.2	-1.9
C=C(C)C(=O)O[C@H]1[C@H]2C(=C)C(=O)O[C@@H]2C[C@@H](C)/C=C/C(=O)[C@](C)(O)[C@@H]1OC(C)=O	1.5	59*
O=C(c1cc2nc(-c3ccco3)cc(C(F)(F)F)n2n1)N(Cc1ccccc1)Cc1ccccc1	-1.1	-8.0
COc1ccc(CN(C)C[C@@H]2Oc3ccc(NC(=O)Nc4ccc(OC)cc4)cc3C(=O)N([C@H](C)CO)C[C@H]2C)cc1	0.7	-3.3
CCOC(=O)N1CCC(NC(=O)c2sc3nc4n(c(=O)c3c2C)CCCC4)CC1	-0.3	-3.1
Cc1ccccc1NC(=O)c1ccccc1NC(=O)c1ccccc1	-2.9	0.1
C=C(C)Cc1c(C)nc(-c2ccc(Cl)cc2)nc1OC(=S)N(CC)CC	0.4	7.2
C[C@H](CO)N1C[C@H](C)[C@H](CN(C)Cc2ccc(C(=O)O)cc2)Oc2c(NC(=O)C3CC3)cccc2C1=O	nt	-4.7
COc1ccc(CN(C)C[C@@H]2Oc3ccc(NC(=O)Nc4cccc5ccccc45)cc3C(=O)N([C@@H](C)CO)C[C@H]2C)cc1	-0.8	1.8
C[C@H](CO)N1C[C@H](C)[C@@H](CN(C)C(=O)NC2CCCCC2)Oc2ccc(NC(=O)Cc3cn(C)c4ccccc34)cc2C1=O	-0.8	0.4
O=C(NCc1nc2ccccc2s1)c1cc(F)cc2c1OCOC2	0.3	-4.6
C[C@@H]1CN([C@@H](C)CO)C(=O)c2cccc(NC(=O)c3cnccn3)c2O[C@@H]1CN(C)C(=O)Nc1ccccc1	nt	3.4
COC(=O)c1cc2sccc2n1CC(=O)Nc1ccc(C(C)C)cc1	0.7	-1.4
COC(=O)C1=CO[C@@H](O[C@@H]2O[C@H](CO)[C@@H](O)[C@H](O)[C@H]2O)[C@H]2[C@@H]1[C@H](OC(C)=O)C[C@]2(C)O	0.2	-1.7
C=CCNC(=O)c1cnn2c(C(F)(F)F)cc(-c3cccs3)nc12	0.9	-3.2
COc1ccc(NC(=O)Nc2cccc3c2O[C@@H](CN(C)CC2CCCCC2)[C@H](C)CN([C@H](C)CO)C3=O)cc1	nt	-2.0
O=C(NCCCN1CCN(Cc2ccccc2)CC1)c1cn2cc(C(F)(F)F)cc(Cl)c2n1	nt	4.8
Oc1ccc2ccccc2c1CN1CCN(Cc2ccc3c(c2)OCO3)CC1	nt	-4.5
COc1cc(O)c2c(=O)c(O[C@@H]3O[C@@H](CO)[C@H](O)[C@H]3O[C@@H]3O[C@@H](C)[C@H](O)[C@@H](O)[C@H]3O)c(-c3ccc(O)cc3)oc2c1	-0.7	-0.2
CCCNC(=O)c1ccc2nc(N3CCCCC3)sc2c1	-3.0	8.6
COc1ccc(CN(C)C[C@@H]2Oc3ccc(NC(=O)Nc4c(C)noc4C)cc3C(=O)N([C@H](C)CO)C[C@H]2C)cc1	0.5	-0.7
Cc1ccc(S(=O)(=O)Nc2ccc3c(c2)C(=O)N([C@H](C)CO)C[C@@H](C)[C@H](CN(C)Cc2ccc4c(c2)OCO4)O3)cc1	-0.9	-3.6
CSc1nc(Nc2cccc(C(F)(F)F)c2)cc(C(F)(F)F)c1C#N	0.9	-4.0
C[C@H](CO)N1C[C@H](C)[C@H](CN(C)Cc2ccc(Oc3ccccc3)cc2)Oc2ccc(NC(=O)Cc3cn(C)c4ccccc34)cc2C1=O	0.6	-1.5
N#CC(=C(/N)Sc1ccccc1N)/C(C#N)=C(\N)Sc1ccccc1N	2.0	16

# (cont.)
canonical_smiles	A1 inh	BJeLR viability
COc1cccc(NC(=S)N(Cc2ccccc2)Cc2ccc(C)o2)c1	0.5	-2.7
COc1ccc(NC(=O)c2cc3cc(OC)ccc3oc2=N)cc1	-1.0	-0.5
C[C@H](CO)N1C[C@H](C)[C@H](CN(C)Cc2ccc(C(F)(F)F)cc2)Oc2c(NC(=O)Nc3ccccc3)cccc2C1=O	nt	-1.9
C[C@@H]1CN([C@H](C)CO)C(=O)c2cccc(NC(=O)Nc3cccc4ccccc34)c2O[C@@H]1CN(C)C(=O)Nc1ccc2c(c1)OCO2	nt	-1.1
C[C@H]1CN([C@@H](C)CO)C(=O)c2cc(NC(=O)Cc3ccccc3)ccc2O[C@H]1CN(C)CC1CCCCC1	-0.1	-0.3
CC(C)(C)c1ccc(-c2nnc(-c3ccccc3NC(=O)CCC(=O)O)o2)cc1	0.2	-2.0
C[C@@H]1CN([C@H](C)CO)C(=O)c2cc(NS(=O)(=O)c3cn(C)cn3)ccc2O[C@@H]1CN(C)S(=O)(=O)c1cn(C)cn1	0.4	-3.2
COc1ccc(S(=O)(=O)Nc2ccc3c(c2)C(=O)N([C@H](C)CO)C[C@@H](C)[C@@H](CN(C)Cc2ccc4c(c2)OCO4)O3)cc1	0.1	-6.2
O=C(NC(=S)Nc1ccc(Nc2ccccc2)cc1)c1ccco1	nt	-1.1
C[C@H](CO)N1C[C@H](C)[C@H](CN(C)Cc2ccc3c(c2)OCO3)Oc2ccc(NC(=O)Nc3ccc(C(F)(F)F)cc3)cc2C1=O	0.1	-3.4
C[C@@]1(C2CCCC2)Cc2cc(OCC(=O)O)c(Cl)c(Cl)c2C1=O	-0.5	-4.7
